ClpP mod = qHTS Assay for Activators of ClpP; purified B. subtilis ClpP, FRET peptide cleavage, 20 min; Potency, µM (doses to about 57.5 µM), for inactives: top-dose activity change, negative = active; hit rate 1.9% among 340,000; ATP-dependent Clp protease proteolytic subunit (Bacillus subtilis (strain 168)), P80244; active = well fitted falling curve with a large enough effect; inconclusive = small, poorly fitted or top-dose-only effect; inactive = no such curve, though single readings can be large or run the other way; also: the source files actives as falling curves though it sought activators and does not explain the sign; nearly all actives have a fitted effect of over 65% in size; many hits overshoot -100%
Target sequence (P80244 whole entry, looked up): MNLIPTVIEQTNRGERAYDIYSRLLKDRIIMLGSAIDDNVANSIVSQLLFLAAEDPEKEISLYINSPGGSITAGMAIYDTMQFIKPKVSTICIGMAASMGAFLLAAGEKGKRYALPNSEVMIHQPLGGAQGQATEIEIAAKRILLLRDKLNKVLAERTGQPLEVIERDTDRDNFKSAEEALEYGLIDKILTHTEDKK
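Buffer: 100 mM Tris/HCl pH8, 100 mM KCl, 0.05% low protease BSA, 2.5% glycerol, 0.01% Tween-20. ClpP 10 microg/mL final; 20 min RT; delta FRET normalized to ADEP and DMSO controls.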
Starred values were filed as active, the others as inactive; u = inconclusive. Potency is read from the fitted curve at half-maximal effect. Only part of the results is shown, so the mix of outcomes need not match the whole.

cpd	canonical_smiles	ClpP mod
1	CCc1ccccc1NC(=O)CSc1nc(-c2ccccc2OC)nc2c1Cc1c(CO)cnc(C)c1O2	-11%
2	COC(=O)c1ccc(Nc2ncnc3c2cnn3C)cc1	-0.7%
3	COc1ccc(NC(=O)Cc2csc(COc3cccc(C)c3)n2)cc1OC	-3.7%
4	CCC(C)[C@H]1CNC(=O)C(=O)N1CCCCC1CCCCC1 (some centres undefined)	-3.9%
5	CCN(CC)C(=O)C1CCN(S(=O)(=O)c2ccc3c(c2)CCCN3C(C)=O)CC1	0.7%
6	COc1cc(NC(=O)CCc2c(C)nn(-c3ccc(N4CCCCC4)nn3)c2C)cc(OC)c1OC	-0.4%
7	Cc1ccc(-c2nc3cc(C(C)C)ccc3o2)cc1NC(=O)c1cc([N+](=O)[O-])ccc1N1CCOCC1	-1.3%
8	Cc1ccc(CN2C(=O)c3ccccc3CC2(C)C(=O)NC2CCCCC2)cc1 (centres undefined)	2.6%
9	CCC(=O)Nc1ccc(C)cc1-c1nc2ccccc2n(C(C)C(=O)Nc2ccccc2CC)c1=O (centres undefined)	16%
10	Cn1c(=O)cc(SCC(=O)N2CCN(c3ccccc3F)CC2)c2cc(Cl)ccc21	-2.8%
11	COc1ccc(S(=O)(=O)NCC(c2ccc(N(C)C)cc2)N2CCCC2)cc1 (centres undefined)	1.4%
12	COc1cccc(CNS(=O)(=O)c2ccc(-c3cc(C(F)(F)F)on3)s2)c1	1.2%
13	COc1ccc(-c2cc(C)no2)cc1S(=O)(=O)NCc1cccs1	0.9%
14	COc1ccc(OC)c2sc(N3CCN(C(=O)c4ccc5c(c4)CCCC5)CC3)nc12	-1.1%
15	COCCCNC(=O)CSc1nc(-c2cccc(F)c2)[nH]c1-c1ccccc1	28µM*
16	CCCCNc1nc2c(c(=O)n(Cc3ccc(Cl)cc3)c(=O)n2C)n1C	-0.1%
17	O=C(NC1CCCC1)C(c1ccco1)N1CCC(O)(c2ccc(Cl)cc2)CC1 (centres undefined)	-0.3%
18	O=C(CCC1N=C2c3ccccc3N=C(SCc3ccc(F)cc3)N2C1=O)NCc1cccs1 (centres undefined)	-0.8%
19	Cc1sc(NC(=O)COc2ccc(C(C)(C)C)cc2)c(C(=O)OC(C)C)c1C	-2.3%
20	CCOC(=O)c1c(C)[nH]c(C)c1S(=O)(=O)NCC(=O)NCc1ccc(C)cc1	2.3%
21	COc1cccc(/C=C/c2nc(C#N)c(NCCc3ccccc3)o2)c1	11%
22	Cc1ccc(C)c(Cn2c(=O)cc(C(F)(F)F)c3c(C)nn(C)c32)c1	u
23	COC[C@H]1CCCN1c1ccc2c(c1)O[C@@H](COCc1ccccc1)CN([C@@H](C)c1ccccc1)S2(=O)=O	u
24	Cc1cc(N2CCN(C)CC2)nc2ccc(NC(=O)Nc3cccc(Cl)c3)cc12	4.5%
25	COc1cccc(-n2cc(C(=O)Nc3ccccc3C(N)=O)c3ccccc3c2=O)c1	-5.5%
26	CCn1c(CNC(=O)c2ccc(OC)cc2)nnc1SCC(=O)Nc1ccccc1	-8.5%
27	O=C(CCCN1C(=O)c2cccnc2Oc2ccc(Cl)cc21)NCc1ccccc1F	-0.4%
28	CN(C)c1ccc(N=Cc2ccnc3ccccc23)cc1	-1.3%
29	CC(=O)N1CCOc2cc(S(=O)(=O)NCc3ccc(C)cc3)c(Cl)cc21	-1.4%
30	CC(C)c1ccc(NC(=O)Cn2c3ncccc3c(=O)n2-c2ccccc2)cc1	4.5%
31	COc1cccc(CNC(=O)c2cc3cc(C)ccc3n2C)c1	-19%
32	COc1cccc(OC(=O)CSc2nnc(-c3ccccc3OC)o2)c1	4.8%
33	CCc1ccccc1Nc1nn2c(=O)c3ccc(C(=O)Nc4ccc(OC)cc4)cc3nc2s1	-4.8%
34	COc1cccc(CNS(=O)(=O)c2ccc3c(c2)CCN3C(=O)C2CCC2)c1	-1.6%
35	CCc1nn(CC(=O)NCc2cccc(OC)c2)c(=O)c2cc3cc(F)ccc3n12	-29%
36	Cc1ccccc1Nc1c(-c2ccc(N3CCOCC3)cc2)nc2ccc(Br)cn12	-1.4%
37	CCOC(=O)c1c(C)[nH]c(C)c1S(=O)(=O)N1CCCC(C(=O)Nc2ccc(OC)c(OC)c2)C1 (centres undefined)	0.0%
38	O=C(NCc1ccc2c(c1)CCN2C(=O)c1ccncc1)c1ccccc1Br	-2.5%
39	CC(C)(C)n1nnnc1C(c1ccccc1)N1CCN(c2ncc(C(F)(F)F)cc2Cl)CC1 (centres undefined)	-0.5%
40	Cc1ccc(Cn2cc(CN3CC(N4CCSCC4)CS3(=O)=O)nn2)cc1 (centres undefined)	0.1%

Arranged by molar mass (descending): part of the list above.
cpd	canonical_smiles	ClpP mod
35	CCc1nn(CC(=O)NCc2cccc(OC)c2)c(=O)c2cc3cc(F)ccc3n12	-29%
34	COc1cccc(CNS(=O)(=O)c2ccc3c(c2)CCN3C(=O)C2CCC2)c1	-1.6%
29	CC(=O)N1CCOc2cc(S(=O)(=O)NCc3ccc(C)cc3)c(Cl)cc21	-1.4%

Later entries.
cpd	canonical_smiles	ClpP mod
41	COc1ccc(NC(=O)Cn2c(=O)n(-c3cc(C)cc(C)c3)c(=O)c3oc4ccccc4c32)cc1OC	21%
42	CCC(=O)N1N=C(c2ccc(OC)cc2)CC1c1cn(-c2ccccc2)nc1-c1cccs1 (centres undefined)	u
43	COCCCn1c(=N)c(C(=O)NCc2ccco2)cc2c(=O)n3ccccc3nc21	4.3%
44	CC(C)COc1ccc(C2=NC(c3ccncc3)=Nc3ccc(F)cc3N2)cc1	2.0%
45	CCN(Cc1ccccc1)S(=O)(=O)c1ccc(N2CCCCS2(=O)=O)cc1	-3.1%
46	COc1cccc(-c2cc(C(F)(F)F)nc(NCc3ccc(F)cc3)n2)c1	28µM*
47	CCN(CC)c1ccc(C2Nc3ccccc3-c3cc(C)nn32)cc1 (centres undefined)	u
48	O=C(C[n+]1ccncc1)c1cccc2ccccc12	0.9%
49	CCc1ccc2[nH]c(=O)c(CN(Cc3ccccc3)Cc3nnnn3Cc3ccccc3)cc2c1	25µM*
50	CCCn1c2ccccc2c2cnn(CC(=O)N(CCCOC(C)C)Cc3ccco3)c(=O)c21	5.0%
51	COc1cccc(CNC(=O)c2ccc(-n3c(C)cc4c3CCCC4)cc2)c1	-12%
52	COc1ccc(C2C=C(c3ccc(F)cc3)Nc3nc(-c4ccc(Cl)cc4)nn32)cc1 (centres undefined)	-3.6%
53	COCCN1CCc2nc(SCC(=O)Nc3ccc(Br)cc3)[nH]c(=O)c2C1	-3.6%
54	CCOC(=O)[C@]12CCC=C1N(Cc1ccco1)C(=O)[C@H](CC(=O)N1CCC(c3ccccc3)CC1)C2	-5.4%
55	CC(C)(C)c1ccc(O)c(N=Cc2cccc([N+](=O)[O-])c2)c1	1.0%
56	CCC(=O)N1c2ccccc2CC1C(=O)NCCc1ccc(OC)cc1OC (centres undefined)	0.4%
57	CCc1cc2c(cc3c(=O)n(CC(=O)N4CCCCC4)ncn32)s1	0.2%
58	COc1ccc(C2CC(=O)c3cc(-c4nc(-c5cccc([N+](=O)[O-])c5)cs4)c(=O)n(-c4ccccc4C)c3C2)cc1 (centres undefined)	1.1%
59	COc1ccc(C)cc1NC(=O)C1CCC(CNS(=O)(=O)c2ccc3c(c2)CCCC(=O)N3)CC1 (centres undefined)	-1.9%
60	COc1ccc(CNC(=O)C(C)Sc2nc(-c3ccccc3)cc(C(F)(F)F)n2)cc1 (centres undefined)	1.9%
61	CCOc1cc2sc(N3CCC(C(=O)Nc4ccccc4C(=O)OC)CC3)nc2cc1Br	-0.9%
62	CCc1ccc(NC(=O)c2cc3c([nH]c2=O)CC(C)(C)CC3=O)cc1	-1.1%
63	COc1ccc(NC(=O)Cn2c(=O)n(-c3cccc(C)c3)c(=O)c3c2c2cc(C)ccc2n3C)cc1Cl	1.5%
64	O=C(CCn1c(=O)c2cccn2c2cccnc21)N1CCN(c2ccc(F)cc2)CC1	-15%
65	Cc1ccc(Nc2sc(C(=O)c3ccc(F)cc3)c(N)c2S(=O)(=O)c2ccc(C)cc2)cc1	-11%
66	CC(=O)N1CCc2cc(S(=O)(=O)NC(Cc3ccccc3)C(=O)NCc3ccccc3Cl)ccc21 (centres undefined)	0.0%
67	Cc1cccc(NC(=O)c2cc(S(=O)(=O)N3CCCCCC3)cn2C)c1C	0.1%
68	CCOc1ccc(CNC(=O)c2ccc(NC(=O)c3nsc4ccccc34)cc2)cc1	u
69	COCc1oc2ccc(NS(=O)(=O)c3ccc(C)cc3)cc2c1C(=O)OC	-1.7%
70	Cc1ccc(S(=O)(=O)CC(=O)Nc2nc3c(C)cc(C)cc3s2)cc1	-9.7%
71	COc1ccccc1NC(=O)Cn1c(C)cc(C)c(C#N)c1=O	-22%
72	CCOC(=O)c1[nH]c2c(c1Cc1ccccc1C)C(=O)CC(c1ccccc1)C2 (centres undefined)	-1.9%
73	COc1ccc(-n2c(=O)c3ccccc3n(Cc3cccc(C)c3)c2=O)cc1	-2.7%
74	CC(=O)c1ccc(NC(=O)C2CCN(c3nnc(C)c4c(C)n(-c5ccccc5)nc34)CC2)cc1	u
75	CCOCCCn1c(=N)c(C(=O)NCC2CCCO2)cc2c(=O)n3cccc(C)c3nc21 (centres undefined)	3.5%
76	CCc1ccc(CNC(=O)CN2C(=O)CCn3nc(-c4cn(C)c5ccccc45)cc32)cc1	-8.2%
77	COc1ccc(C)cc1N(C)C(=O)c1c(C)oc2ncnc(N3CCOCC3)c12	-0.8%
78	CCC(C)NC(=O)CN1C(=O)c2cccnc2Oc2ccc(C)cc21 (centres undefined)	0.8%
79	CCOc1ccc(Cn2c(CNS(=O)(=O)c3ccc(CC)cc3)nc3cccnc32)cc1	-7.2%
80	CCOc1ccc(CCNC(=O)c2ccc(-c3nc(CSc4ccc(C)cc4)c(C)o3)cc2)cc1	-0.8%

Looked up above.
cpd 70 in ClpP mod → -9.7%
cpd 62 in ClpP mod → -1.1%

(more compounds)
cpd	canonical_smiles	ClpP mod
81	Cc1ccc(S(=O)(=O)c2cn(CC(=O)Nc3ccccc3)c3cc4c(cc3c2=O)OCO4)cc1	u
82	CCOc1ccccc1NC(=O)N1CCCn2nc(C)cc21	-0.4%
83	Cc1ccc(S(=O)(=O)c2cnc(-c3ccccc3)[nH]c2=O)cc1	-2.8%
84	COc1cccc(/C=C/c2nc(C#N)c(N3CCCCCC3)o2)c1	4.1%
85	CCN(CCCNC(=O)Cn1ncc2c([nH]c3ccccc32)c1=O)c1cccc(C)c1	-13%
86	Cc1ccc(CNC(=O)C(=O)NCC(c2ccco2)S(=O)(=O)c2cccs2)cc1 (centres undefined)	0.3%
87	CCN1CCN(c2cc3c(cc2F)c(=O)c(S(=O)(=O)c2ccc(OC)cc2)cn3CC)CC1	7.9µM*
88	COc1ccc2c(CNCc3ccc(C)o3)c(C(=O)O)n(Cc3ccccc3C)c2c1	-16%
89	COc1ccc(CNC(=O)c2ccc(CSc3nc4ccncc4n3Cc3ccccc3F)cc2)cc1	-29%
90	Cc1cccc(NC(=O)CN2C(=O)CCc3ccccc32)c1C	1.6%
91	Cc1cc(/C=C/c2c(C)cnc3ccccc23)ccc1N(C)C	-0.5%
92	CCOc1ccc(NC(=O)CSC2=Nc3ccccc3C3=NC(Cc4ccccc4)C(=O)N23)cc1 (centres undefined)	-2.5%
93	Cc1ccc(C(C)C)c(OCC(=O)Nc2nc3c(s2)CCCC3)c1	0.2%
94	CCOC(=O)N1CCc2c(sc3c2c(=O)n(-c2ccc(Cl)cc2)c(=O)n3Cc2cccc(C)c2)C1	-0.3%
95	COC(=O)c1ccccc1NC(=O)Cn1c(=O)n(-c2ccc(C)cc2)c(=O)c2ccccc21	-23%
96	COc1ccc(OC)c(CNC(=O)c2cc3ccc4cccnc4c3[nH]2)c1	-1.1%
97	COc1ccc(CCC(=O)O)cc1	0.7%
98	Cc1ccc(-n2ncc(C(=O)Nc3c(Cl)cccc3Cl)c2C2CCNCC2)cc1	2.2%
99	Cc1ccccc1CN1C(=O)CN(S(C)(=O)=O)CC1(C)C(=O)NCc1ccccc1 (centres undefined)	0.4%
100	CCOC(=O)c1c(-c2ccccc2)oc2ccc(N(C(C)=O)S(=O)(=O)c3cc(C)ccc3C)cc12	-41%

Fetched by structure from the entries so far (four):
cpd	canonical_smiles	ClpP mod
99	Cc1ccccc1CN1C(=O)CN(S(C)(=O)=O)CC1(C)C(=O)NCc1ccccc1 (centres undefined)	0.4%
88	COc1ccc2c(CNCc3ccc(C)o3)c(C(=O)O)n(Cc3ccccc3C)c2c1	-16%
98	Cc1ccc(-n2ncc(C(=O)Nc3c(Cl)cccc3Cl)c2C2CCNCC2)cc1	2.2%
85	CCN(CCCNC(=O)Cn1ncc2c([nH]c3ccccc32)c1=O)c1cccc(C)c1	-13%

Values by screen from above:
Compounds 90–96 in ClpP mod, in turn: 1.6%, -0.5%, -2.5%, 0.2%, -0.3%, -23%, -1.1%

Other records follow:
cpd	canonical_smiles	ClpP mod
101	O=S(=O)(c1ccc(OC(F)(F)F)cc1)N1CCC(c2nnnn2-c2ccc(F)cc2)CC1	-1.0%
102	CC(C)(C)OC(=O)N1CCC(c2c(C(=O)NCc3ccccn3)cnn2-c2ccc(F)cc2)CC1	-0.6%
103	COc1ccc(S(=O)(=O)NCC(c2ccco2)S(=O)(=O)c2cccs2)cc1C (centres undefined)	1.7%
104	CCOc1ccc(CNCc2c(C(=O)O)n(Cc3ccc(OC)cc3)c3ccccc23)cc1	29%
105	COc1cccc(CNC(=O)C(CC(C)C)NS(=O)(=O)c2ccc3c(c2)oc(=O)n3C)c1 (centres undefined)	-1.3%
106	Cc1noc(-c2ccccc2OCC(=O)Nc2cccc([N+](=O)[O-])c2)n1	0.1%
107	CCCNC(=O)C1=CC(c2ccc3c(c2)OCO3)=NS(=O)(=O)N1C	-3.3%
